A350 fluor = qHTS Assay for Spectroscopic Profiling in A350 Spectral Region; Compound autofluorescence, 340/450 nm, Alexa 350 dye-equivalents; hits give high values; max dye-equivalent concentration, M; 59,000 compounds, 11% hits; AID 590, 2007; in the data active = max dye-equivalent concentration above about 10 nM; inconclusive = mostly about 1.1 nM to 9.6 nM
Fluorescein autfl = qHTS Assay for Spectroscopic Profiling in Fluorescein Spectral Region; Compound autofluorescence, 480/540 nm, fluorescein-equivalent; hits give high values; max fluorescein-equivalent concentration, M; 59,000 compounds, 0.91% hits; in the data active = max fluorescein-equivalent concentration above about 10 nM; inconclusive = between about 1.1 nM and that limit
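Each compound is tested across a concentration series in 100 mM Tris buffer at pH 8.0. After 15 min at room temperature, plates are imaged with 480 nm excitation and 540 nm emission filters, and intensities are converted to fluorescein-equivalent values.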
4-MU autofl = qHTS Assay for Spectroscopic Profiling in 4-MU Spectral Region | 59,000 compounds, 11% hits | compound autofluorescence, 340/450 nm, 4-MU equivalents; hits give high values | max dye-equivalent concentration, M; in the data active = max dye-equivalent concentration above about 10 nM; inconclusive = mostly about 1.1 nM to 9.6 nM
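Compounds in 100 mM Tris, pH 8.0, sat 15 min at room temperature before fluorescence was read at 340 nm excitation/450 nm emission; a per-plate six-point 4-MU standard curve converted signals to dye-equivalent concentration at each compound concentration.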
Texas Red fluor = qHTS Assay for Spectroscopic Profiling in Texas Red Spectral Region. max dye-equivalent concentration, M. 59,000 compounds, 0.06% hits. Compound fluorescence, Texas Red channel, 547/618 nm; hits give high values; in the data active = max dye-equivalent concentration above about 10 nM; inconclusive = between about 1.1 nM and that limit
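Pin-transferred compounds and Texas Red standards go into 100 mM Tris buffer, pH 8.0. After 15 min at room temperature, plates are imaged with 547/618 nm filters. Each value is a dye-equivalent concentration derived from the per-plate dye curve.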
Casp7 inh = qHTS Assay for Allosteric/Competitive Inhibitors of Caspase-7; recombinant caspase-7, Ac-DEVD-AFC fluorescence rate; Potency, µM (doses to about 57.5 µM), for inactives: at the highest dose activity change, negative = inhibition, actives largely listed as inhibitors; 75,000 compounds, 0.02% hits; AID 889, 2007; active = well fitted inhibition curve with a large enough effect in the main read-out, with a control signal flat, not every such curve was filed as active; inconclusive = small, poorly fitted or top-dose-only effect, or a change in a side signal; also: potency is read from the fitted curve at half-maximal effect; % of control where 0% means no effect
Rhodamine fluor = qHTS Assay for Spectroscopic Profiling in Rhodamine Spectral Region; 59,000 compounds, 0.05% hits; Rhodamine-region fluorescence, 547/598 nm, Tris buffer; hits give high values; max dye-equivalent concentration, M; in the data active = max dye-equivalent concentration above about 11 nM; inconclusive = between about 1.1 nM and that limit
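Steps: pin-transfer compounds into pH 8.0 Tris (100 mM), hold 15 min at room temperature, image with a 547/598 nm filter pair, and convert intensities to rhodamine-equivalent concentration using a six-point on-plate rhodamine series.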
USP2a inh = qHTS Assay for Inhibitors of Ubiquitin-specific Protease USP2a; Ubiquitin carboxyl-terminal hydrolase 2 (Homo sapiens), O75604; USP2a enzymatic assay, qHTS inhibition; Potency, µM (titrated, usually from 38.3 µM), inactives show top-dose activity change, negative = inhibition, hits mostly inhibitors; 60,000 compounds, 0.1% hits;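 also: potency is read from the fitted curve at half-maximal effect; nearly all actives have a fitted effect of over 60% in size; plate controls were DMSO for no effect and NEM full inhibition control for full effect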
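20 nM USP2 core + cpd, 30 min RT; add 20 nM Ub-PLA2/20 uM NBD C6-HPC; read Ex460/Em535 at 0 h and 2.5 h. Normalized to NEM; qHTS curve fit/classification.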
BRCT PPI red = qHTS Assay for Inhibitors of BRCT-Phosphoprotein Interaction (Red Fluorophore). Breast cancer type 1 susceptibility protein (Homo sapiens), P38398. 75,000 compounds, 0.03% hits. BRCT-phosphopeptide binding, red fluorescence polarization. Potency, µM (titrated, usually from 76.9 µM), inactives show top-dose activity change, negative = inhibition, hits mostly inhibitors. AID 892, 2007; also: % is scaled to controls: 0 for no effect and ±100 for the full control effect
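Fluorescence polarization: 100 nM His-tagged BRCA1 BRCT with 100 nM TAMRA-labelled phospho-BACH1 decapeptide, phosphate buffer pH 7.3 with 150 mM NaCl, DTT, 0.01% Tween 20; 12 min RT. Binding inhibition seen as FP decrease.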
BRCT PPI green = qHTS Assay for Inhibitors of BRCT-Phosphoprotein Interaction (Green Fluorophore) | BRCA1 BRCT-phosphopeptide binding, green fluorescence polarization | Potency, µM (top dose mostly 76.9 µM), for the others: at the top dose activity change, negative = inhibition, actives largely listed as inhibitors | 75,000 compounds, 0.05% hits | Breast cancer type 1 susceptibility protein (Homo sapiens), P38398 | AID 875, 2007;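 also: potency is read from the fitted curve at half-maximal effect; plate controls were peptide without protein for full effect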
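Compounds were incubated for 12 min at room temperature with a complex of 100 nM fluorescein-tagged pBACH1 decapeptide and 250 nM His-tagged BRCT protein. Buffer was phosphate pH 7.3 with EDTA, DTT and Tween 20. Disruption of binding lowers the polarization signal.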
Caspase-1 inhib = qHTS Assay for Allosteric/Competitive Inhibitors of Caspase-1; P29466; Caspase-1 enzyme, Ac-WEHD-AFC fluorogenic rate; Potency, µM (top dose mostly 57.5 µM), for the others: at the top dose activity change, negative = inhibition, actives largely listed as inhibitors; 75,000 compounds, 0.03% hits; AID 900, 2007;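 also: potency is read from the fitted curve at half-maximal effect; plate controls were vehicle for no effect and no substrate for full effect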
An asterisk follows results filed as active; i = inactive; ? = inconclusive; . = not tested or not shown; [ ] = remark or other dose. Unless noted, calls follow the shape of the dose curve; as a rule, active = well fitted curve in the direction sought with a large enough effect; inconclusive = small, poorly fitted or top-dose-only effect, or another doubt; inactive = no such curve, though single readings can be large; an effect the other way counts as inactive or inconclusive. An excerpt; count on the stated rates, not on these rows.

SMILES | A350 fluor | Fluorescein autfl | 4-MU autofl | Texas Red fluor | Casp7 inh | Rhodamine fluor | USP2a inh | BRCT PPI red | BRCT PPI green | Caspase-1 inhib
COc1ccc(N2C3=[N+](CC2(C)O)c2ccccc2CC3)cc1 (stereo unspecified) | i | i | i | i | -1% | i | -5% | -0.4% | -2.2% | -1%
COc1ccccc1-c1ccc2ncnc(NC3CC3)c2c1 | i | i | i | i | -4% | i | 105%[activator] | 0.0% | 0.5% | -2%
C/C=C1\C(=O)C[C@H]2[C@@H]3CCC4=CC(=O)CC[C@]4(C)[C@H]3CC[C@]12C | . | . | . | . | -3% | . | . | -3.2% | 4.4% | 1%
Cc1nc(=O)c(-c2ccccc2)c(C)n1-c1ccc(O)c(C(=O)O)c1 | . | . | . | . | 1% | . | -4%[7.66 µM] | -0.7% | -3.4% | 0%
O=C(OCC(O)CO)c1ccccc1Nc1ccnc2cc(Cl)ccc12 (stereo unspecified) | . | . | . | . | -6% | . | 5% | 0.3% | 2.5%[3.08 µM] | -7%
Nc1ccc(C(=O)NCC(=O)O)cc1 | ? | ? | ? | ? | -3% | i | -1% | -4.4% | -0.6%[3.08 µM] | 0%
COCCn1c(C(=O)N2CCCC2)cc2c1C[C@H]1CN(C(=O)c3ccccc3)[C@@](Cc3ccccc3)(C(=O)OC)[C@@H]21 | . | . | . | . | -1% | . | . | 0.6% | 1.7% | -2%
O=C(CSc1n[nH]c(-c2ccccc2)n1)c1ccccc1 | . | . | . | . | -3% | . | . | -0.6% | -2.0% | 2%
CC(C)CCNC(=O)C(c1ccco1)N(Cc1ccccc1)C(=O)c1snc(C(N)=O)c1N (stereo unspecified) | 1.1e-07M* | i | 1.2e-07M* | i | -10% | i | . | -2.4% | -0.6% | -12%
COc1ccccc1[N+](=O)[O-] | . | . | . | . | -1% | . | . | 1.8% | -1.9% | -1%
C[N+]1(CCCCC[N+]2(C)CCCC2)CCCC1 | i | ? | i | i | -2% | i | -18% | -2.0% | -1.3%[3.08 µM] | 7%
Cc1ccc(C)cc1 | . | . | . | . | -1% | . | . | 1.0% | -1.4% | -1%
CC(C)NCC(O)COc1ccc(CCOCC2CC2)cc1 (stereo unspecified) | 1.9e-08M* | i | 1.7e-08M* | i | . | i | . | . | . | .

Part of the list above, showing only Casp7 inh, Texas Red fluor and BRCT PPI red:
SMILES	Casp7 inh	Texas Red fluor	BRCT PPI red
C/C=C1\C(=O)C[C@H]2[C@@H]3CCC4=CC(=O)CC[C@]4(C)[C@H]3CC[C@]12C	-3%	.	-3.2%
Cc1nc(=O)c(-c2ccccc2)c(C)n1-c1ccc(O)c(C(=O)O)c1	1%	.	-0.7%
O=C(OCC(O)CO)c1ccccc1Nc1ccnc2cc(Cl)ccc12 (stereo unspecified)	-6%	.	0.3%
Nc1ccc(C(=O)NCC(=O)O)cc1	-3%	?	-4.4%
COCCn1c(C(=O)N2CCCC2)cc2c1C[C@H]1CN(C(=O)c3ccccc3)[C@@](Cc3ccccc3)(C(=O)OC)[C@@H]21	-1%	.	0.6%
O=C(CSc1n[nH]c(-c2ccccc2)n1)c1ccccc1	-3%	.	-0.6%

Entries of single compounds as entered above. Order of values: A350 fluor, Fluorescein autfl, 4-MU autofl, Texas Red fluor, Casp7 inh, Rhodamine fluor, USP2a inh, BRCT PPI red, BRCT PPI green, Caspase-1 inhib
Listed for COc1ccc(N2C3=[N+](CC2(C)O)c2ccccc2CC3)cc1 (stereo unspecified) : i, i, i, i, -1%, i, -5%, -0.4%, -2.2%, -1%
Listed for Nc1ccc(C(=O)NCC(=O)O)cc1 : ?, ?, ?, ?, -3%, i, -1%, -4.4%, -0.6%[3.08 µM], 0%

Assay outcomes from PubChem.
